Screens as filed in PubChem BioAssay.
Bfl-1 A1 inh: inhibitors of the anti-apoptotic protein A1, read as caspase activation. AID 2462. hit rate 0.066% among 330,000. MEF A1-2A-BIM cells, Caspase-Glo 3/7 luminescence, 3 h; percent of clofoctol response, vehicle zero. caspase activation, % (no concentration beside the values);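 active = over half of replicate activation scores above 10%, or exactly half above 10 with the replicate mean above 10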;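 note: wells of about 30 µL received 50 nL stock; many hits fall short of the cut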
Ecoli growth: E. coli growth inhibition; OD600 absorbance (test concentration not listed); hit rate 0.21% among 330,000; AID 1053175; Escherichia coli growth, OD600, 23 h; hits give low values;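 active = OD600 absorbance below the run mean of sample wells minus 3.6 SD, in any replicate, cut at about 0.56 in these data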;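 note: stock transfer was 300 nL into about 60 µL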
T cruzi repl: T. cruzi replication inhibition | inhibition, % (concentration not given with the values) | T. cruzi beta-gal in NIH3T3, luminescence, 90 h | hit rate 1.4% among 300,000;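 active = mean inhibition across valid replicates above about 55%, limit read from the data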;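 note: signal also drops with host cell toxicity which is not excluded here; 0% = plate median of DMSO wells and 100% = zero luminescence signal; higher percent means less beta-gal luminescence so fewer parasites; stock transfer was 50 nL into about 50 µL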
Ecoli rRNA inh: inhibits bacterial ribosomal RNA function over humanized ribosomes; AID 720706; hit rate 1.6% among 350,000; E. coli WT GFP vs humanized-ribosome RFP mutants, fluorescence, 24 h; hits give low values; DMSO median 0, no signal -100; GFP signal change (wild-type ribosome), % (concentration not given with the values);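 active = significant combined selectivity score with lowered wild-type GFP, culture density cut under 30%, mutant RFP and density less affected; inactive = any of these conditions unmet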; note: one replicate is shown; some compounds called inactive have numbers as strong as hits
UCH37 DUB inh: inhibitors of human deubiquitinating enzyme UCH37; hit rate 0.33% among 330,000; purified proteasome/UCH37, Ub-AMC cleavage fluorescence; inhibition, % (no concentration beside the values); AID 588478;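 active = mean of two replicates above 20%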;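 note: 0% = compound-free wells with enzyme and 100% = wells lacking proteasome; stock transfer was 100 nL into about 20 µL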
Target sequence (Q9Y5K5 whole entry, looked up): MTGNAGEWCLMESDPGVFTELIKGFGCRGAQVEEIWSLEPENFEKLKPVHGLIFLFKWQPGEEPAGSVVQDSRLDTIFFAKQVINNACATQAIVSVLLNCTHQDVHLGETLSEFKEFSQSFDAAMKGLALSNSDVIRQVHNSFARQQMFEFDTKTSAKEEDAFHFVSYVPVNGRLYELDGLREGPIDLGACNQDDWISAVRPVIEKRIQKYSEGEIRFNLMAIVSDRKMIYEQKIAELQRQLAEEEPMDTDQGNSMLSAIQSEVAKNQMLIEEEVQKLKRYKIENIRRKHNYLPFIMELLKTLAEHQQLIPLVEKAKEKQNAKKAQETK
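assay system = human UCH37 enzyme supplied as purified proteasome complex | amount = proteasome at 0.15 nM in the dispensed enzyme solution | schedule = 30 min compound-proteasome preincubation then 25 min substrate reaction, room temperature | measured by = fluorescence, ex 355 nm, em 460 nm | benchmarks = no-proteasome wells (full inhibition) and compound-free wells (no inhibition)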
FGF22 binding: shifts melting point of recombinant human FGF22; calls only at 9.99 µM; AID 651658; hit rate 1.5% among 340,000; recombinant FGF22 thermal shift, SYPRO orange fluorescence; percent of sucrose octasulfate shift, DMSO zero;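 active = melting point raised past a set limit in the mean and every replicate; three in four hits are not shown here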
Target sequence (Q9HCT0 whole entry, looked up): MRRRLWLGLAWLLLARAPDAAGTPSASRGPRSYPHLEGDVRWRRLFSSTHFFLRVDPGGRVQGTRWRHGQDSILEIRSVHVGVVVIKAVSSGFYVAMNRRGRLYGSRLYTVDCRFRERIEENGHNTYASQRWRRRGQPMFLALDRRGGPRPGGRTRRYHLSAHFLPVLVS
MLL AF4-AF9 inh: blocks AF4 peptide binding to human AF9 | P42568 | AlphaScreen, biotin-AF4 peptide binding to FLAG-AF9 | inhibition, % at 10 µM | hit rate 0.47% among 350,000 | AID 651704;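 active = every replicate reaching a set inhibition limit, whatever the replicate mean, cut at about 25% in these data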;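 note: 0% = plate neutral control median and 100% = total signal loss; the record names both 10 and 1 µM as test concentration; the first replicate is given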
Target sequence (P42568 whole entry, looked up): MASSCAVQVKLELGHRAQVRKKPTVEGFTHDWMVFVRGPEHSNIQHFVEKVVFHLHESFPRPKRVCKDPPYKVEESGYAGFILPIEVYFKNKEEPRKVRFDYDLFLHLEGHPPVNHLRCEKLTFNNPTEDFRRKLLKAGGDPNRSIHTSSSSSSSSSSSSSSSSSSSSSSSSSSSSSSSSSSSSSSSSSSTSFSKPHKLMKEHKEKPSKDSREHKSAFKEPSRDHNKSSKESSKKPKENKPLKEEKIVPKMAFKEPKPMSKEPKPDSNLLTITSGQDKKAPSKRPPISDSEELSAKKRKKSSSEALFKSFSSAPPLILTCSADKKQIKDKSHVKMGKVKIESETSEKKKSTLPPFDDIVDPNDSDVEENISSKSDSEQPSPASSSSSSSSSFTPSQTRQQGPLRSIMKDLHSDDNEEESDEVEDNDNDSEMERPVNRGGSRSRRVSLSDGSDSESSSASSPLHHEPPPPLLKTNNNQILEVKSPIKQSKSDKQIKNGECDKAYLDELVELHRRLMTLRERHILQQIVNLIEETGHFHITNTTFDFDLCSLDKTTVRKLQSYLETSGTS
Beta cell apopt: beta cell apoptosis inhibition | INS-1E cytokine-induced death, ATP luminescence, 48 h; percent of positive-control rescue, neutral wells zero | protection from apoptosis, % (no concentration beside the values) | hit rate 0.8% among 300,000;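 active = all replicates at 75% or more, or half of them and the mean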;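 note: 0% = cytokine-treated negative control wells and 100% = positive control rescue; higher means more ATP so stronger rescue from cytokine killing; wells of about 40 µL received 100 nL stock; the first replicate is given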
Ecoli rRNA inh OD600: recorded beside Ecoli rRNA inh, whose call it bears; OD600 change, %; measured here: OD600 growth;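 optical density of the mix in the first replicate; 0 = DMSO median and -100 = no signal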
Ecoli rRNA inh RFP: recorded beside Ecoli rRNA inh, whose call it bears; RFP signal change, %; measured here: RFP humanized mutant strains;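 first replicate; 0 = DMSO median and -100 = no signal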
Active calls of the source: *; i = inactive; / = not tested or not shown. Only part of the results is shown; rates above refer to the full screens.

Values in the order: Bfl-1 A1 inh	Ecoli growth	T cruzi repl	Ecoli rRNA inh	Ecoli rRNA inh OD600	Ecoli rRNA inh RFP	UCH37 DUB inh	FGF22 binding	MLL AF4-AF9 inh	Beta cell apopt
1	CCC1=C(OC(=O)N(CC)CC)N2C(=O)OC(=NCC(=O)OC)[C@]2(Cc2ccccc2)[C@H]2C1=CC[C@H]1C(=O)N(CC(=O)OC)C(=O)[C@H]12
 : -0.2	/	-1	12	3	-2.3	4.1	i	1.3	-6
2	COCC(=O)N1CCC(Oc2ccc(C(=O)N3CCCCCCC3)cc2)CC1
 : -0.2	0.7	-18	1	1	-1.4	0.2	i	-0.8	/
3	COc1ccc(NC(=O)CCS(=O)(=O)c2ccc(OC)cc2)cc1
 : 0.4	0.67	-8	/	/	/	1.8	/	/	1
4	Nc1nonc1-n1nnc(C(=O)N/N=C/c2ccc(Cl)cc2Cl)c1CN1CCCC1
 : -0.2	/	3	7	14	-5.3	/	i	1.7	0
5	CC1CCCC(NC(=O)Cn2cc([N+](=O)[O-])ccc2=O)C1C (centres undefined)
 : 0.2	0.67	/	6	6	0.4	1.6	i	-1.0	1
6	CSCCC(=O)N1CCCC(N(C)CCc2ccccc2)C1 (centres undefined)
 : 0.8	0.63	12	30	19	1.4	0.0	i	-0.9	0
7	Cc1ccc(C(=O)N2CCN(c3ccccc3F)CC2)cc1NC1=NC2CS(=O)(=O)CC2S1 (centres undefined)
 : -1.1	0.65	-14	3	-3	0.9	3.0	i	-7.6	-2
8	CCCNS(=O)(=O)c1ccc(OC)c(Cl)c1Cl
 : -0.5	0.71	-13	/	/	/	1.9	/	/	-10
9	Cc1ccc(-c2nc(CSc3nc4ccccc4c(=O)n3C)cs2)cc1
 : -0.9	0.7	-14	10	-2	-8.0	-0.2	i	-8.3	10
10	C/C(=N/OC(=O)C1CC1c1ccccc1)c1ccccc1 (centres undefined)
 : -0.3	/	-10	-21*	-1.9*	2.9*	/	i	-2.5	-10
11	CC1CN(Cc2cc(=O)[nH]c(C3CC3)n2)CC(C)O1 (centres undefined)
 : 0.3	0.69	-8	/	/	/	1.2	/	/	-1
12	CN1CCN(NC(=O)c2cccc(Br)c2)CC1
 : 0.0	0.7	32	/	/	/	2.5	/	/	-4
13	FC(F)C(F)(F)c1cc(-c2ccc(Cl)cc2)n[nH]1
 : 0.8	0.58	7	-23	-24	-5.7	4.2	i	/	7
14	CC1=[N+](C)N(c2ccccc2)C(=O)C1N=Cc1ccccc1Cl (centres undefined)
 : -1.1	0.66	-22	9	11	3.3	3.3	i	0.9	2
15	Cc1nn(C)cc1CN1CCC(n2nccc2NC(=O)CCCc2ccccc2)CC1
 : 0.3	0.68	25	7	16	-0.6	0.2	i	2.5	3
16	CCNC(=S)N1CCn2cccc2C1c1ccc(F)cc1 (centres undefined)
 : 0.0	0.68	-10	-40	-35	-9.9	2.2	i	11	-7
17	Cc1c(C(=O)Nc2c(N)nc(SCC(=O)NCC3CCCO3)[nH]c2=O)cccc1[N+](=O)[O-] (centres undefined)
 : -0.2	0.69	-6	6	11	0.7	-2.8	i	-0.3	-3
18	Cc1ccsc1CN(C)C(=O)c1cc(S(=O)(=O)N2CCOCC2)ccc1N1CCCC1
 : 1.4	0.68	/	-4	-5	1.1	2.5	i	3.7	4
19	Cc1cccc(NC(=O)CCN2CC(C)OC(C)C2)c1 (centres undefined)
 : -0.3	0.7	4	/	/	/	-1.4	/	/	-1
20	CCc1nn2cc(-c3ccccc3)nc2s1
 : -7.3	0.67	1	/	/	/	-0.3	/	/	7
21	Oc1ccc(-c2nc3ccccn3c2NCc2ccco2)cc1
 : -0.2	0.68	-14	/	/	/	-81	/	/	-6
22	CC(C)CNC(CC(=O)O)c1ccccc1 (centres undefined)
 : 0.9	0.67	-17	12	2	-7.8	0.0	i	-1.5	-6
23	Cc1cc(C)n(-c2ccc(C(=O)OCC(=O)Nc3ccc(Cl)c(S(=O)(=O)N(C)C)c3)cc2)n1
 : 0.7	0.69	6	-11	-4	6.5	2.0	i	-6.0	-2
24	Cc1ccc(S(=O)(=O)N2[C@@H](c3ccccc3F)C(C(=O)O)=CC[C@H]2c2ccc(C(C)C)cc2)cc1
 : 1.5	/	/	-7	8	12	4.3	/	/	-3
25	CCOC(=O)C1=CNS(=O)(=O)NC1c1ccc(Br)cc1F (centres undefined)
 : /	0.67	/	0	5	0.2	2.2	i	-4.1	/
26	C/C(=N\NC(=O)Cc1c[nH]c2ccccc12)c1ccc2ccccc2c1
 : 1.0	/	-15	2	3	-0.5	/	i	1.8	-13
27	NS(=O)(=O)c1cnccc1Nc1cccc(Br)c1
 : -0.1	0.62	/	/	/	/	4.2	i	-2.6	3
28	O=C(CSc1nc(-c2ccccc2)nc2c1Cc1ccccc1O2)Nc1ccc(C(=O)O)cc1
 : /	0.65	/	-13	-5	3.7	16	i	-1.6	/
29	COCCN(Cc1ccccc1)C(=O)c1ccc2c(c1)NC(=O)CS2
 : 0.9	0.67	/	-4	0	-4.9	-0.8	i	-1.6	1
30	CN(C)c1ccc(C(=O)Nc2cccc(S(=O)(=O)N3CCCC3)c2)cc1
 : /	0.64	/	-13	-6	-4.2	-4.7	i	6.1	/
31	CC(=O)Nc1ccc(C(=O)Nc2ccc3c(c2)OCCO3)cc1
 : 0.1	0.66	-4	0	-2	3.8	-1.2	i	-7.9	-3
32	CC(C)(C)S(=O)(=O)N1C[C@H]2CC/C=C\C/C(c3ccccc3)=C\2[C@@H]1CCO
 : /	0.69	/	-14	-35	-6.5	25*	i	-3.1	/
33	C/C=C/c1ccc(OCCCCN(C)Cc2ccccc2)c(OC)c1
 : 0.3	0.64	33	-12	-13	-0.3	2.7	i	16	/
34	O=c1c2ccccc2nc(-c2ccco2)n1CCc1ccc(O)cc1
 : -0.2	0.66	-14	4	22	16	-1.7	i	0.2	-3
35	c1ccc2ncc(-n3cnnn3)cc2c1
 : 0.5	0.66	-29	/	/	/	4.0	/	/	-4
36	Cn1cc(S(=O)(=O)NC2CCCCC2)c(=O)n(C)c1=O
 : -0.1	0.67	-5	5	5	-1.9	3.2	i	-16	/
37	O=C(Nc1ccc(Cl)c(Cl)c1)N1N=CCC1c1ccccc1 (centres undefined)
 : /	0.7	30	-34	-51	19	1.3	i	-2.3	/
38	CC1(C)CC(=O)C2=C(C1)N(Cc1ccccc1)C(=O)C2(NC(=O)C(C)(C)C)C(F)(F)F (centres undefined)
 : -0.8	0.68	9	/	/	/	6.1	/	/	-11
39	Fc1ccccc1CSc1nc2ccccc2[nH]1
 : -7.1	0.68	-6	/	/	/	1.9	/	/	3
40	CC1(C(=O)OCC(=O)Nc2nc(-c3ccc(F)c(F)c3)cs2)CC1(Cl)Cl (centres undefined)
 : -0.5	0.69	2	-28*	-15*	3.4*	5.2	i	-1.3	/
41	COc1cc2ccccc2cc1C(=O)Nc1ccc(S(=O)(=O)Nc2cc(C)on2)cc1
 : 1.3	0.73	12	/	/	/	3.9	/	/	-12
42	O=C(COC(=O)c1cc(Br)ccc1O)NC12CC3CC(CC(C3)C1)C2
 : 0.6	0.69	/	-48	-59	-17	0.6	i	-2.3	-9
43	Cc1nn(Cc2ccccc2Cl)c(C)c1C(=O)N1CCN(c2ccccc2)CC1
 : 0.1	0.62	2	-27*	-20*	-5.4*	0.3	/	/	6
44	CC(C)NC(=O)NC(=O)COC(=O)c1ccccc1F
 : 0.2	0.68	-7	/	/	/	2.2	/	/	-7
45	O=C(Nc1cccc(C(=O)N2CCCCCC2)c1)c1ccco1
 : -0.1	0.7	-7	/	/	/	1.4	/	/	-2
46	CC(=O)c1cccc(NC(=O)N2C3CCCC2CC(NC(=O)C2CC2)C3)c1 (centres undefined)
 : 0.0	0.65	-8	25	13	2.8	2.4	i	-3.8	1
47	O=C(O)Cc1sc(=O)[nH]c1O
 : /	0.71	/	8	15	-5.0	1.4	i	0.6	/
48	CN=c1sc(C(=O)Nc2cccc(Cl)c2)cc(=O)n1C
 : 0.6	0.69	24	/	/	/	-4.7	/	/	-2
49	COc1ccc(OCC(O)CN2CC(C)OC(C)C2)cc1 (centres undefined)
 : -0.7	0.71	0	14	12	-0.5	-0.5	i	3.7	0
50	O=C(CSc1nnc(Nc2ccccc2)s1)NCCN1C(=O)CSC1=O
 : -0.2	0.69	-15	/	/	/	0.7	/	/	-10
51	C#CCOCCOCCOCCNc1nc(N2CCN(C(=O)[C@H]([C@@H](C)CC)n3cc([C@@H](N)CC(C)C)nn3)CC2)nc(N2CCN(C(=O)[C@H](Cc3ccc(O)cc3)n3cc([C@@H](N)CC(C)C)nn3)CC2)n1
 : 0.0	/	-2	1	7	3.4	5.5	i	28*	-3
52	Cn1cccc1CC(=O)N/N=C/c1ccc(Cl)cc1
 : 0.3	/	-8	9	-1	1.9	/	i	/	/
53	CS(=O)(=O)Nc1ccccc1C(=O)N1CCN(c2ccccc2)CC1
 : 0.9	0.66	-13	/	/	/	-1.1	/	/	-11
54	CCS(=O)(=O)N1CCN(c2ccc(C(=O)NC34CC5CC(CC(C5)C3)C4)cc2[N+](=O)[O-])CC1
 : -0.2	0.68	31	/	/	/	2.7	/	/	7
55	Cc1ccc2c(c1)NC(c1cccs1)C1=C(CC(C)(C)CC1=O)N2 (centres undefined)
 : 0.0	0.7	0	8	-49	60	9.9	i	-2.8	-10
56	COc1ccc(CNC(=O)COC(=O)[C@@H]2CCCN2C(=O)c2cccs2)cc1
 : 1.6	0.69	/	-4	-3	-0.6	2.9	i	-1.6	-2
57	COc1cccc2c1CCc1c-2nc2ccccc2c1C(=O)O
 : 0.1	0.67	-4	3	-2	4.1	-0.3	i	-1.8	2
58	CCN(CC)c1ccc(C(=O)OCC(=O)Nc2ccccc2-c2ccccc2)cc1
 : -0.2	0.75	50	3	-3	-5.1	-17	i	-0.6	1
59	CCOC(=O)N/N=C/C=C/c1ccccc1[N+](=O)[O-]
 : 2.0	/	6	15	28	5.7	/	i	-10	-2
60	Cc1ccc(N(CC(=O)Nc2ccccc2-c2ccccc2)S(=O)(=O)c2ccccc2)c(C)c1
 : 0.1	0.77	43	3	-1	0.1	3.3	i	-5.0	-3
61	CCN(CC)C(=O)[C@H]1CC(CC(=O)NCCN2CCOCC2)C(=O)N2CCc3c([nH]c4ccc(OC)cc34)[C@]12C (some centres undefined)
 : /	0.67	/	13	14	1.9	0.7	i	-0.2	/
62	CC(C)(C)CC(=O)NCc1cccs1
 : -0.3	0.7	-7	13	14	2.6	0.2	/	-0.4	-8
63	Cc1cc(C)n(-c2ccc(N3CCOCC3)nn2)n1
 : 0.5	0.74	-12	/	/	/	1.8	/	/	-3

One compound at a time, from the list above. Order of values: Bfl-1 A1 inh | Ecoli growth | T cruzi repl | Ecoli rRNA inh | Ecoli rRNA inh OD600 | Ecoli rRNA inh RFP | UCH37 DUB inh | FGF22 binding | MLL AF4-AF9 inh | Beta cell apopt
`Cc1ccc(N(CC(=O)Nc2ccccc2-c2ccccc2)S(=O)(=O)c2ccccc2)c(C)c1` is listed as 0.1 | 0.77 | 43 | 3 | -1 | 0.1 | 3.3 | i | -5.0 | -3
`CC(C)(C)CC(=O)NCc1cccs1` is listed as -0.3 | 0.7 | -7 | 13 | 14 | 2.6 | 0.2 | / | -0.4 | -8
